Assay outcomes deposited in PubChem BioAssay by several laboratories.
GALR2 agonist = agonists of human galanin receptor 2 (GALR2) | O43603 | GALR2-expressing cells, agonist activation read-out | activation, %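 (tested at 5 µM)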 | 140,000 compounds, 0.48% hits;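 active = above mean plus 3 SD of all compounds, about 5% in these data, not always enough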;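 note: 0% = vehicle buffer wells and 100% = reference agonist at full effect; tested in CHO reporter cells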
RGS16-Gao HTS = RGS16-Galphao interaction regulator (human) | 220,000 compounds, 0.38% hits | binding response (% of control), % at 10 µM | bead-based flow cytometry RGS16-Galphao binding, fluorescence; actives lie on both sides;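 active = below 25% or above 175%, edge rows of some plates excepted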;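 note: Galphao activated by GDP with aluminum fluoride before binding; 100% = wells without compound and 0% = beads without RGS; some results beyond the cut were filed as inactive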
Insulin prom inh = TRM-6 insulin promoter activity inhibition. AID 1273. inhibition, % at 2 µM. TRM-6 cells (human fetal islet line), insulin promoter-eGFP reporter, imaging; reporter expression induced with tamoxifen. 130,000 compounds, 0.9% hits;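 active = inhibition above the mean plus 3 SD, with well images judged a real hit on visual review, cut at about 60% in these data, passing the limit was not always enough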
PKD1 kinase inh = inhibitors of human PKD1 kinase; Q15139; PKD1 kinase fluorescence polarization assay; inhibition, %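 (about 10 µM by stock and volumes)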; 200,000 compounds, 0.056% hits;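 active = inhibition of 50% or more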;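 note: controls were vehicle for no effect and a reference inhibitor for full effect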
Target sequence (Q15139 whole entry, looked up): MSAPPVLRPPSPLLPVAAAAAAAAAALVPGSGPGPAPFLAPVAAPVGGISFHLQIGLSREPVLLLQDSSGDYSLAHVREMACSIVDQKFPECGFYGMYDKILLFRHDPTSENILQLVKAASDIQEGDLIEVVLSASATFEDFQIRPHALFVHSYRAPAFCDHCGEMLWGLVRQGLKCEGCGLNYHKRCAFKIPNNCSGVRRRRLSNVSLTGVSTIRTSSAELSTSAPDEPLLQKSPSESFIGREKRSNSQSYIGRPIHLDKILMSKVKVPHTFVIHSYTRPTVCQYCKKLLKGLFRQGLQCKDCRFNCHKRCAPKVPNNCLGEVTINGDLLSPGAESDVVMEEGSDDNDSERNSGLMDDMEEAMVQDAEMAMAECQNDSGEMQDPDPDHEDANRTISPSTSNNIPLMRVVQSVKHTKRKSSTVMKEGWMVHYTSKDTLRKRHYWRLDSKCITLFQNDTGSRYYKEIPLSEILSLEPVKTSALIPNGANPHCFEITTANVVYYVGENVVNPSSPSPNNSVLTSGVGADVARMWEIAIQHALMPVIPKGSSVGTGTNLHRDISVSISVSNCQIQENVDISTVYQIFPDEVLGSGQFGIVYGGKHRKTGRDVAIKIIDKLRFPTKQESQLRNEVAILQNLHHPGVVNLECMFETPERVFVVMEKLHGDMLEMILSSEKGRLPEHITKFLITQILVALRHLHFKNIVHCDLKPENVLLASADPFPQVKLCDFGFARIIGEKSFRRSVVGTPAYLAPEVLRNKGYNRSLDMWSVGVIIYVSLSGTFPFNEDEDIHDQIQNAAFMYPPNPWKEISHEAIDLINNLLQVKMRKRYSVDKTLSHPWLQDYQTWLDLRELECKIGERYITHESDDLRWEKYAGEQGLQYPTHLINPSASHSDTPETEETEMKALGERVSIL
HSV augment = HSV replication enhancement; HSV replication augmentation in cells, fold increase; maximum fold increase; 220,000 compounds, 0.005% hits;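 active = peak rise of 1.5-fold or more in the series; tested in PC3 cells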;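 note: first round at 10 µM; read as green reporter fluorescence; hits show the peak of a series up to 25 µM; 1 = signal of infected wells without compound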
Insulin prom inh cell count = second read-out of Insulin prom inh, no call of its own (marks repeat the call); normalized cell count, %; measured here: cell count, toxicity; reference of the scale not given here;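 cells exposed to compound for 48 h; stained nuclei by imaging scaled within each plate; lower means fewer cells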
HSV augment primary fold = further read-out of HSV augment, marked with its call; fold increase; compound at 10 µM; measured here: primary screen fold increase 10 uM; tested in PC3 cells;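 GFP signal in the first replicate; 1 = infected wells without compound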
* = called active by the depositor; i = inactive; · = no result given.

SMILES	GALR2 agonist	RGS16-Gao HTS	Insulin prom inh	Insulin prom inh cell count	PKD1 kinase inh	HSV augment	HSV augment primary fold
COC(=O)CNC(c1ccccc1)c1cc(C)ccc1NC(=O)c1cccc(Cl)c1 (stereo unspecified)	0.1	99	-60	160	-2	i	0.94
Nc1nonc1C(=O)N/N=C/c1cccc([N+](=O)[O-])c1	-0.2	115	-11	98	-5	i	0.98
COC(=O)C(C)Oc1ccc(=O)[nH]n1 (stereo unspecified)	-1.6	102	59	143	0	i	1
COc1cccc(CN2CCN(Cc3ccc(C#CC(C)(C)O)s3)CC2CCO)c1 (stereo unspecified)	·	80	·	·	0	i	0.87
Cc1ccc(S(=O)(=O)N2CCN(C(=O)CCN3C(=O)c4ccccc4C3=O)CC2)cc1C	-0.2	108	-2	116	4	i	1
COc1ccc(N(CC(=O)O)S(=O)(=O)c2c(C)n[nH]c2C)cc1	-2.0	99	-22	109	1	i	0.92
CCN(CC)c1ccc(/C=C/C(=O)c2ccc(Br)cc2)cc1	0.9	102	·	·	-40	·	·
Cc1nc(NS(=O)(=O)c2ccccc2)sc1NC(=O)Nc1ccccc1	·	111	·	·	-10	i	0.96
Fc1ccc(Oc2nccc(-c3ccc(Cl)cc3)n2)cc1	-0.7	101	-27	114	-13	i	0.87
CC(=O)NC(Cc1cnc[nH]1)C(=O)O (stereo unspecified)	-1.4	105	·	·	1	i	0.99
Cc1cc(C)n(-c2ccc(C(=O)OCc3ccccc3)cc2)n1	-1.1	105	9	146	-8	i	1
COc1ccccc1N1CCN(C(=O)CCNS(=O)(=O)c2ccc(Br)s2)CC1	-1.6	99	-73	127	-13	i	0.85
COc1ccc(-c2[nH]ncc2CN2CCC(OCc3cccnc3)CC2)c(F)c1	·	98	17	163	6	i	0.9
COc1ccc(C2CC(c3ccccc3)n3nnnc3N2)cc1 (stereo unspecified)	-5.5	54	32	110	-5	i	0.97
CCN(CC)C(=O)C(C)N(C#N)c1nc(C)cc(C)n1 (stereo unspecified)	-1.9	98	·	·	3	i	0.99
COc1cc(CNc2ncn[nH]2)ccc1OCc1ccccc1C	·	104	·	·	0	i	0.97
O=C(CCN1C(=O)C2C3C=CC(C3)C2C1=O)N1CCN(c2ccc(F)cc2)CC1 (stereo unspecified)	-0.9	98	·	·	0	i	0.94
O=C(CSc1ccc(Br)cc1)NCC1CCCO1 (stereo unspecified)	·	94	0	102	-5	i	1.1
Cc1ccc(C)c(Cn2cnc3c(oc4ccccc43)c2=O)c1	·	96	56	137	2	i	0.95
C/C(=C\c1ccco1)C1C(C#N)=C(N)OC2=C1C(=O)CC(C)(C)C2 (stereo unspecified)	-0.6	100	·	·	-20	i	1.1
O=C(CSc1cccc2cccnc12)N/N=C/c1cccc(O)c1	·	106	·	·	-5	i	0.96
CCCOc1ccc(C2(C(=O)O)CCCC2)cc1	-1.1	100	22	227	-7	i	1
CS(=O)(=O)Nc1ccc(S(=O)(=O)N2CCOCC2)cc1	-3.3	101	18	127	-2	i	1
COc1[nH]c(/N=C/c2ccccc2)c(C#N)c1C#N	-1.0	97	·	·	-1	i	1.3
CCOc1ccc(/C=C(/NC(=O)c2ccccc2)C(=O)NCCC(=O)O)cc1	·	101	·	·	-7	i	1
SMILES	GALR2 agonist	RGS16-Gao HTS	Insulin prom inh	Insulin prom inh cell count	PKD1 kinase inh	HSV augment	HSV augment primary fold
CCOc1cccc(NC(=O)C(Cc2cccs2)c2nn[nH]n2)c1 (stereo unspecified)	-1.4	103	·	·	-5	i	1.1
CCOc1cc(/C=N/NC(=O)COc2ccc(Cl)cc2)ccc1OS(=O)(=O)c1ccccc1	-1.6	99	52	93	2	i	0.87
Cc1ccc2cc(COC(=O)c3cccc([N+](=O)[O-])c3)c(=O)[nH]c2c1	·	93	·	·	·	i	0.97
CCOC(=O)c1[nH]c2ccccc2c1NC(=S)Nc1cccc(C)c1C	-1.7	·	52	94	-8	·	·
O=C(NNC(=S)NCC1CCCO1)c1ccc(S(=O)(=O)N2CCOCC2)cc1 (stereo unspecified)	·	100	·	·	1	i	0.98
COc1ccc(CNC(=O)C/C(C)=N/NC(=O)COc2cccc(C)c2)cc1	·	105	·	·	1	i	1.1
CCOC(=O)c1cc(-c2ccccc2)n(CCC(=O)NC(C)CC)c1C (stereo unspecified)	-1.6	103	-16	117	11	i	0.72
COc1ccc(-n2c(-c3ccc(Br)cc3)c[n+]3c2SC(C)C3)cc1 (stereo unspecified)	·	96	-33	134	-5	i	0.89
O=C(COc1ccccc1)NC1CCS(=O)(=O)C1 (stereo unspecified)	·	101	28	121	-5	i	1
COc1ccc(CNC(=O)C2CCCN(S(=O)(=O)c3c(C)nn(C)c3C)C2)cc1 (stereo unspecified)	-2.3	108	·	·	0	i	0.93
CCN(CC)c1nc2c(c(=O)n(C)c(=O)n2C)n1CC(=O)c1ccccc1	·	87	·	·	·	i	0.96
Oc1ccccc1N1CCN(c2nnnn2-c2ccccc2)CC1	·	98	·	·	·	i	1.1
O=C(Cn1[nH]c(=O)c2ccccc2c1=O)NC1CCN(Cc2ccccc2)CC1	-3.5	99	-29	114	10	i	0.9
CC(=O)Nc1ccc(C(=O)Nc2cccc(-c3cnc4ccccc4n3)c2)cc1	·	21	0	79	-3	i	0.88
CCCCCOC(=O)C(C)Sc1n[nH]c(=O)[nH]c1=O (stereo unspecified)	·	100	·	·	-1	i	1.1
CCOCCCNC(=O)C(NC(=O)c1ccc2c(c1)OCO2)c1ccc(OC)cc1 (stereo unspecified)	-3.0	104	-21	123	-4	i	0.87
CC1CN(c2nnnn2-c2ccccc2)CC(C)O1 (stereo unspecified)	-0.4	90	·	·	-11	i	1.1
COc1cc2c(cc1OC)CN(C(=O)c1ccc(S(=O)(=O)N3CCCC3)cc1)CC2	·	102	·	·	·	i	1.1
CCOc1ccccc1NC(=O)C1CCC(CNc2c(N3CCCCC3)c(=O)c2=O)CC1 (stereo unspecified)	·	124	·	·	·	i	0.93
COc1cc(C(=O)NC(C)Cc2cccs2)cc(OC)c1OC (stereo unspecified)	·	96	·	·	0	i	0.88
O=C(OC(C(=O)Nc1ccc(Cl)cc1C(F)(F)F)c1ccccc1)c1c(Cl)cccc1Cl (stereo unspecified)	0.0	101	18	70	6	i	1
COC(=O)c1[nH]c2ccccc2c1NC(=O)Oc1ccccc1	-0.8	129	45	97	-6	i	0.95
CCCC(=O)Nc1nc2ccc(OCC)cc2s1	-2.1	106	·	·	-15	i	0.87
O=C(CN1CCN(S(=O)(=O)c2ccc(Br)cc2)CC1)Nc1ccccc1C(=O)c1ccccc1	-0.2	101	-35	94	-11	i	0.86
O=C(N/N=C1\CCc2ccccc21)c1ccccc1Cl	0.0	105	30	134	4	i	0.97
SMILES	GALR2 agonist	RGS16-Gao HTS	Insulin prom inh	Insulin prom inh cell count	PKD1 kinase inh	HSV augment	HSV augment primary fold
CCC(=O)Nc1nc2nc(-c3ccccc3)cc(=O)n2[nH]1	·	101	·	·	·	i	0.97
CN(/N=C/c1cccnc1)C1=NS(=O)(=O)c2ccccc21	0.9	103	-74	117	0	i	1.1
Cc1ccc(NC(=O)COC(=O)CCC(=O)c2cccs2)cc1	-1.0	104	-8	120	7	i	1
COc1ccc(/C=N/Nc2nnc(-c3ccccc3)c(=O)[nH]2)cc1	0.3	103	·	·	-9	i	0.77
Nc1nc(Cn2nnc(-c3ccccc3Cl)n2)nc(N2CCOCC2)n1	-0.3	100	·	·	-6	i	0.79
CC(C)(C)[C@@H]1C=C(C(=O)N2CCN(Cc3ccccc3)CC2)O[C@H](OCc2ccc(CO)cc2)C1	·	100	·	·	0	i	0.97
CC(C)CC(=O)Nc1ccc(OCC(=O)O)cc1	-1.5	114	·	·	-5	i	1.2
CCOC(=O)c1ccccc1NC1OC(=O)c2ccccc21 (stereo unspecified)	0.0	96	·	·	-4	i	0.74
N#Cc1cnc2c(-c3ccccc3)c(-c3ccccc3)nn2c1N	·	109	·	·	-1	i	0.84
CSCCC(NS(=O)(=O)c1ccc2c(c1)oc(=O)n2C)C(=O)NC1CCN(Cc2ccccc2)CC1 (stereo unspecified)	·	100	·	·	3	i	0.97
COc1ccc(-c2occ(C(=O)O)c2C(=O)O)cc1	-0.2	109	27	132	-5	i	1.1
O=C(N/C(=C/c1ccc(Cl)cc1)c1nc2ccccc2[nH]1)c1ccco1	-0.5	103	·	·	0	·	·
C=CCNC(=S)N1CCN(CCN=CC2=C(O)CC(c3cccs3)CC2=O)CC1 (stereo unspecified)	-0.4	99	16	173	-5	i	0.88
Cc1cccc(NC(=O)c2cc(Cl)sc2Cl)c1C	-0.3	103	·	·	-5	i	1.1
COc1cccc(Nc2nc(-c3sc(NC(=O)c4ccco4)nc3C)cs2)c1	-1.0	87	0	117	2	i	0.83
CCc1ccc(Nc2nc(N)nc(CSc3nnnn3-c3ccccc3)n2)cc1	0.0	102	-186	31	3	i	0.87
Cc1ccc(-n2[nH]c3c4c(ccc3c2=O)C(=O)c2ccccc2C4=O)cc1	-0.2	100	·	·	4	·	·
O=C(O/N=C/C1=C(Cl)c2ccccc2CC1)c1ccc(F)cc1	-2.2	108	32	41	-8	i	1.2
CNS(=O)(=O)c1cc(N(C)S(=O)(=O)c2ccc(C)cc2)c(C)cc1C	·	104	-80	123	1	i	0.91
COc1ccc(S(=O)(=O)N(C)C)cc1NC(=O)CSc1nncs1	·	98	·	·	-3	i	0.92
COC(=O)c1sc(NC(=O)COc2ccccc2OC)nc1C	-2.4	100	-35	150	-4	i	0.79
CC(C)Cc1ccc(/C=C/C(=O)NC2CC2)cc1	-1.2	106	-27	93	-8	i	0.93
O=C(N/N=C/c1cn(Cc2ccccc2)c2ccccc12)c1cccnc1	-1.1	30	-79	74	2	i	0.89
CCCc1nc(SCC(=O)NNC(=O)C2CCCCC2)c2ccccc2n1	-2.1	117	10	158	-10	i	0.86
CCOC(=O)c1[nH]c2ccc(OC)cc2c1NC(=O)OC	-0.6	100	·	·	-6	i	0.93
SMILES	GALR2 agonist	RGS16-Gao HTS	Insulin prom inh	Insulin prom inh cell count	PKD1 kinase inh	HSV augment	HSV augment primary fold
CC1(C)Cc2c(sc3nc(C4CCCCC4)n(N)c(=O)c23)CO1	·	98	·	·	·	i	0.97
CCOC(=O)C1CCCN(C(=O)c2ccc(CNc3c(N4CCC(C)CC4)c(=O)c3=O)cc2)C1 (stereo unspecified)	-0.8	95	30	95	-1	i	0.94
CCn1c(-c2ccc(F)cc2)n[nH]c1=S	-2.9	99	30	177	-3	i	0.95
COc1ccc(-n2c(SCc3ccccn3)nc3c(c2=O)SCC3)cc1OC	·	102	-6	128	-8	i	0.93
CCOC(=O)CSC1=NC(=O)/C(=C\c2ccc(OC(C)=O)cc2)S1	-2.0	107	0	137	28	i	0.98
CC(=O)c1cccc(NS(=O)(=O)c2ccc(N/C=C\C(=O)c3ccc(C)cc3)cc2)c1	1.2	114	-35	126	3	i	0.93
CC(=O)N1c2ccccc2NC2=C(C(=O)CCC2)C1c1cccnc1 (stereo unspecified)	-0.2	105	-12	131	-6	i	0.8
C/C=C/c1ccc(OC)c(OC(C)=O)c1	-1.3	104	48	99	-6	i	0.87
O=C(Cc1ccccc1)c1c[nH]c(C(=O)NCCCn2ccnc2)c1	·	107	9	155	-9	i	0.92
NNC(=O)c1cc(-c2ccco2)[nH]n1	·	118	-8	31	-4	i	1
CCN(CCCNC(=O)CCNC(=O)Cn1cnc2ccccc2c1=O)c1cccc(C)c1	-1.2	99	·	·	-3	i	0.87
Cc1nn(-c2ccc(F)cc2)c2sc(C(=O)OCC(=O)N3CCC(C)CC3)cc12	-1.9	100	11	79	-3	i	0.86
COc1ccccc1Nc1ncc(-c2cccs2)s1	-4.0	97	·	·	-5	i	1
Cc1ccc(C2=CSC3=NS(=O)(=O)CCN23)cc1	·	107	8	29	0	i	0.99
CCc1ccccc1NC(=O)Cn1c(=O)n(-c2ccc(CC(=O)NCC3CCCO3)cc2)c(=O)c2ccccc21 (stereo unspecified)	·	95	67	130	0	i	0.97

Reformatted: entries from further up
NNC(=O)c1cc(-c2ccco2)[nH]n1
- GALR2 agonist = ·
- RGS16-Gao HTS = 118
- Insulin prom inh = -8
- Insulin prom inh cell count = 31
- PKD1 kinase inh = -4
- HSV augment = i
- HSV augment primary fold = 1
Cc1ccc(C2=CSC3=NS(=O)(=O)CCN23)cc1
- GALR2 agonist = ·
- RGS16-Gao HTS = 107
- Insulin prom inh = 8
- Insulin prom inh cell count = 29
- PKD1 kinase inh = 0
- HSV augment = i
- HSV augment primary fold = 0.99

Single records, from the list above:
`CC(=O)N1c2ccccc2NC2=C(C(=O)CCC2)C1c1cccnc1` (stereo unspecified) is listed with GALR2 agonist = -0.2; RGS16-Gao HTS = 105; Insulin prom inh = -12; Insulin prom inh cell count = 131; PKD1 kinase inh = -6; HSV augment = i; HSV augment primary fold = 0.8
`CC1(C)Cc2c(sc3nc(C4CCCCC4)n(N)c(=O)c23)CO1` is listed with GALR2 agonist = ·; RGS16-Gao HTS = 98; Insulin prom inh = ·; Insulin prom inh cell count = ·; PKD1 kinase inh = ·; HSV augment = i; HSV augment primary fold = 0.97
